Screening data as filed in PubChem BioAssay.
ClpP mod = qHTS Assay for Activators of ClpP; ATP-dependent Clp protease proteolytic subunit (Bacillus subtilis (strain 168)), P80244; purified B. subtilis ClpP, FRET peptide cleavage, 20 min; Potency, µM (top dose mostly 57.5 µM), for inactives: top-dose activity change, negative = active; actives 1.9% (n = 340,000); AID 651965, 2013; active = well fitted falling curve with a large enough effect; inconclusive = small, poorly fitted or top-dose-only effect; inactive = no such curve, though single readings can be large or run the other way; note: potency is the fitted concentration of half-maximal effect; the source files actives as falling curves though it sought activators and does not explain the sign; nearly all actives have a fitted effect of over 65% in size; many hits overshoot -100%
Target sequence (P80244 whole entry, looked up): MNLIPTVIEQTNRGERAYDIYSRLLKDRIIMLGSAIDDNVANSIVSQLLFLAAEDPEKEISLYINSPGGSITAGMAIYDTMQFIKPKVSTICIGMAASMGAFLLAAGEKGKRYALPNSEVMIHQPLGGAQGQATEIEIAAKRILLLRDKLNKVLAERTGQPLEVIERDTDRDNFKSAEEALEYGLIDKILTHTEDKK
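FRET quenching reversal measured ClpP activation: 10 microg/mL B. subtilis ClpP at pH 8 with the FRET-FV decapeptide, read at 430 nm after 320 nm excitation. The 20-min minus 0-min signal was scaled between DMSO/no-enzyme wells and ADEP (5.8 microM final).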
TRPML1 blocker = inhibitors of human TRPML1 channel. Q9GZU1. TRPML1-inducible cells, Ca2+ dye fluorescence, FDSS; active compounds read low; inhibition of EC80 agonist-evoked calcium signal. activity change, negative = inhibition, % (no concentration beside the values). actives 0.02% (n = 390,000); in the data active means activity change below about -50%; inconclusive means about -30% to -50%; inactive means above about -30%;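 note: stimulus is agonist 54-4 at its EC80 concentration; % is set by controls: 0 for no effect and ±100 for the full control effect; compound concentration not given in the record; the text of the record puts the active cut at -80%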
Target sequence (Q9GZU1 whole entry, looked up): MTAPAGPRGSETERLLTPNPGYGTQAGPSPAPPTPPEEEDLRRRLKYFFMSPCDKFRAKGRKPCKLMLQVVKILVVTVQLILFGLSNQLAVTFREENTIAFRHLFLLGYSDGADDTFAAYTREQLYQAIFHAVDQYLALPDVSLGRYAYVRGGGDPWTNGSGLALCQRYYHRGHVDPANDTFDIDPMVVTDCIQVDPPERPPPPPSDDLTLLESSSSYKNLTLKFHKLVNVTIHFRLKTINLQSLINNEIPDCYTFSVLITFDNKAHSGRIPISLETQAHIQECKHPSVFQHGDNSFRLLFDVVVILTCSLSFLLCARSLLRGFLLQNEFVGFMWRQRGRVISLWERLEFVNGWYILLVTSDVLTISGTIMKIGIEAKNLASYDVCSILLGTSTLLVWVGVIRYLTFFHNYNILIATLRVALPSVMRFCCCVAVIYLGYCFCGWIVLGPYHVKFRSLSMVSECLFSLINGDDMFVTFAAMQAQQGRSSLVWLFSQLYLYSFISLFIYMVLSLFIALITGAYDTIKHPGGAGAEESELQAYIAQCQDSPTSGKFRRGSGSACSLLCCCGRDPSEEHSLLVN
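Calcium fluorescence in TRPML1-DL cells induced overnight with Tet: a 110 s read after compound pin addition, then a 110 s antagonist read after challenge with 54-4 at 4 uM final (EC80).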
* hit, by the source's call; ? = inconclusive.

SMILES	ClpP mod	TRPML1 blocker
CCc1ccc(CN(Cc2ccco2)C(=O)COc2ccc(Cl)cc2C)cc1	-4.8%	23
Cc1nc2cccnc2n1C1CCN(C(=O)Nc2ccccc2C(F)(F)F)CC1	0.8%	-6
CC(=O)Nc1cccc(-c2ccnc3c2CC(C(=O)NCc2cccs2)O3)c1 (stereo not drawn)	-21%	4
COC(=O)c1cccnc1-n1c(=O)c2cccnc2n(CC(=O)Nc2ccccc2F)c1=O	-3.8%	-1
CCCS(=O)(=O)NC(=O)C1(C)CCCN(C(=O)c2ccc(C#N)cc2)C1 (stereo not drawn)	1.2%	40
Cc1nn(CC(=O)NCc2ccccc2Cl)c(=O)c2cccn12	-1.9%	-24
Cc1nc2nncn2c(N2CCN(c3ccccc3)CC2)c1C	-2.5%	-15
Cc1cccn2c(=O)c(C(=O)NCCc3ccc(S(N)(=O)=O)cc3)c(O)nc12	?	21
Cc1cc(C)cc(NC(=O)C2CCCN2S(=O)(=O)c2ccc3nc(-c4ccccc4)[nH]c3c2)c1 (stereo not drawn)	0.6%	-12
CCOc1ccccc1C(=O)Nc1cc(-c2nc3cccnc3s2)ccc1C	-15%	44
COc1cc(OC)c(NC(=O)C(c2ccccc2)N2Cc3ccccc3C2=O)cc1Cl (stereo not drawn)	-0.4%	30
CCOC(=O)C1=CCN(S(=O)(=O)c2ccc(F)cc2)C1c1ccccc1 (stereo not drawn)	-0.3%	11
CCc1ccccc1NC(=O)c1ccc(=O)n(Cc2ccc(F)cc2)c1	-1.6%	-1
COc1ccccc1-c1nnc(C2CCN(S(=O)(=O)c3ccc(CC(C)C)cc3)CC2)o1	-8.2%	-28
CCCN1C(=O)C2(c3ccccc31)c1c(oc3ccc(C)cc3c1=O)C(=O)N2CCOC (stereo not drawn)	0.9%	14
COC(=O)c1ccc(NC(=O)CSc2nc(=O)n(Cc3ccco3)c3c2CCC3)cc1	-22%	11
Cc1ccc(Nc2ncnc3c2nc2n3CCCC2)c(Br)c1	-5.4%	-6
COc1cc2c(cc1OC)C(c1ccc(Cl)cc1)N(c1ccc(C)c(F)c1)C(=O)C2 (stereo not drawn)	-1.0%	36
Cc1nn(-c2ccccc2)c2c1cc1c(=O)n(C)c(=O)nc-1n2-c1cccc(Cl)c1	3.2%	23
Cc1ccc(-c2nnn3c2nc(NC2CCC(C)CC2)c2ccccc23)cc1 (stereo not drawn)	-17%	-15

Looked up above.
Under ClpP mod, CCOc1ccccc1C(=O)Nc1cc(-c2nc3cccnc3s2)ccc1C shows -15%
Under ClpP mod, Cc1nn(CC(=O)NCc2ccccc2Cl)c(=O)c2cccn12 shows -1.9%
Under TRPML1 blocker, Cc1nc2cccnc2n1C1CCN(C(=O)Nc2ccccc2C(F)(F)F)CC1 shows -6
Under ClpP mod, Cc1nn(-c2ccccc2)c2c1cc1c(=O)n(C)c(=O)nc-1n2-c1cccc(Cl)c1 shows 3.2%
Under TRPML1 blocker, CCOC(=O)C1=CCN(S(=O)(=O)c2ccc(F)cc2)C1c1ccccc1 (stereo not drawn) shows 11
Under ClpP mod, CCCS(=O)(=O)NC(=O)C1(C)CCCN(C(=O)c2ccc(C#N)cc2)C1 (stereo not drawn) shows 1.2%

Following part.
SMILES	ClpP mod	TRPML1 blocker
CCc1ccccc1NC(=O)CSc1nc2ccccc2nc1Cc1cccc(OC)c1	0.7%	7
Cc1ccc(-c2nn(-c3ccc(F)cc3F)c3c2cnc2ccc(F)cc23)cc1	-3.7%	6
COC(=O)c1c(NC(=O)CCCOc2ccccc2C)sc2c1CCC(C)C2 (stereo not drawn)	?	13
CCn1cc(C(=O)N2CCN(c3cc(C)ccc3C)CC2)c(=O)c2cc(S(=O)(=O)N(C)C3CCCCC3)ccc21	0.9%	0
Cc1cc(C)cc(NS(=O)(=O)c2cc3c(cc2C)NC(=O)CO3)c1	2.2%	37
CC1=C(C(=O)OCC2CCCCC2)C(c2cccc(Cl)c2Cl)CC(=O)N1 (stereo not drawn)	-0.3%	-15
COc1cc(OC)c(NC(=O)C2=C(C)C(=O)OC23CCN(C(C)=O)CC3)cc1Cl	1.1%	-3
COC(=O)c1cccc(NC(=O)Nc2cc(C(=O)NCc3cccc(F)c3)ccc2N2CCCC2)c1	-13%	4
CCOc1ccc(CNCc2c(C(=O)O)c(C)n(Cc3cccc(OC)c3)c2C)cc1OC	-4.7%	-14
CCOC(=O)c1cnc2ccc(C(=O)OC)cc2c1Nc1ccc(OCc2ccccc2Cl)cc1	-5.4%	41
Cn1nc(-c2ccc(OCC(=O)Nc3ccc(Cl)cc3)cc2)c2ccccc2c1=O	?	49
COc1c(Cl)cc(C(=O)N(Cc2ccccc2F)C2CCS(=O)(=O)C2)cc1Cl (stereo not drawn)	-9.2%	-14
COc1ccc(N2CCN(S(=O)(=O)CCNC(=O)Cc3ccc(OC)c(OC)c3)CC2)cc1	-3.6%	-19
O=C(CCS(=O)(=O)c1ccccc1)N(Cc1cccnc1)c1nc2ccc(F)cc2s1	1.4%	-7
O=C(CN1C(=O)C2(SCC(=O)N2c2ccccc2)c2ccccc21)Nc1ccccc1C(F)(F)F (stereo not drawn)	-3.1%	-12
Cn1c(=O)c(=O)n(C)c2cc(NC(=O)c3ccccc3Br)ccc21	-9.1%	18
Cc1ccc(NC(=O)Cn2nnc(C(=O)NCc3ccc4c(c3)OCO4)c2N)cc1Cl	1.2%	3
Cc1ccc2c(c1)c(=O)c1ccccc1n2CCCC(=O)Nc1cc(Cl)ccc1C	-27%	-1
O=C(Cn1c(SCCOc2ccccc2Cl)nc2ccccc21)N1CCOCC1	-0.1%	-14
CSc1ncc(Cl)c(C(=O)Nc2c(C(=O)c3ccc(Cl)cc3)oc3ccccc23)n1	2.9%	2

By substructure, those above with bromine.
SMILES	ClpP mod	TRPML1 blocker
Cc1ccc(Nc2ncnc3c2nc2n3CCCC2)c(Br)c1	-5.4%	-6
Cn1c(=O)c(=O)n(C)c2cc(NC(=O)c3ccccc3Br)ccc21	-9.1%	18

Later entries.
SMILES	ClpP mod	TRPML1 blocker
Cc1cc(C)n2nc(CNC(=O)c3cccc(Cl)c3)nc2n1	-1.1%	-3
O=C(Nc1ccc(C(F)(F)F)cc1)N1CCC(N2CCCCC2)CC1	2.7%	11
COc1ccc(OC)c(NC(=O)CC2C(=O)NCCN2C(=O)C(F)(F)F)c1 (stereo not drawn)	-2.5%	-9
CN(C(=O)c1cc(-c2ccccc2O)on1)c1ccccc1	0.3%	-25
Cc1ccc(-c2cc3ncc4c(n3n2)-c2cc(C)ccc2OC4)cc1	?	16
O=C(C1CC1)N1CCc2cc(Br)cc(S(=O)(=O)N3CCN(c4ccccc4F)CC3)c21	-3.1%	-5
CN(C)c1ccc(/C=C(\C#N)c2nc(-c3ccc(Cl)c(Cl)c3)cs2)cc1	-0.8%	22
CCc1cc2c(cc3c(=O)n(CC(=O)NCCc4ccccc4)ncn32)s1	-3.8%	3
CCOc1ccc(CCNC(=O)c2nn(-c3ccc(OC)cc3)c(=O)c3c2c2ccccc2n3C)cc1OCC	-11%	-16
Cc1ccc(NC(=O)c2cc(S(=O)(=O)NC3CCCCCC3)ccc2F)cc1F	-11%	-17
COc1ccc(CNC(=O)/C=C/[C@H]2O[C@@H](n3ccc(=O)[nH]c3=O)[C@H](O)[C@@H]2O)cc1	0.1%	-6
CCc1ccc(-c2nn(CC(=O)NC3CCCCC3)c3c2cnc2ccc(OC)cc23)cc1	-17%	5
CCc1ccc(NC(=O)Cn2c(=O)n(CCCCC(=O)NCCc3ccccc3)c(=O)c3ccccc32)cc1	0.6%	51
CC(C)(C)c1ccc(CC(=O)N2CCC2(C)C(=O)N2CCCCC2)cc1 (stereo not drawn)	-5.0%	-20
CSc1ccc(CCNC(=O)c2c(C)oc3ncn(C)c(=O)c23)cc1	-2.5%	-5
Cc1c(C(=O)N(C)C)sc2c1c(=O)n(-c1ccc(F)cc1)c(=O)n2CC(=O)N(C)c1ccccc1	0.2%	-4
CCOC(=O)c1c(-c2ccccc2)csc1NC(=O)c1nc(SCC)ncc1Cl	1.7%	12
Cc1cccc(NC(=O)Cn2nc(C)c3nn(-c4ccc(Cl)cc4)c(C)c3c2=O)c1C	-1.3%	3
Cc1ccc2nc(-c3ccc(Cl)c(NC(=O)c4cccnc4)c3)oc2c1	-3.4%	5
CCOc1ccccc1NC(=O)c1ccc(C(=O)Nc2ccccc2OCC)cc1	-0.5%	-17
C#CCn1c(=O)n(-c2cccc(Cl)c2C)c(=O)c2c3c(sc21)CN(C(C)=O)CC3	-0.5%	-11
CCCSc1ncc(Cl)c(C(=O)Nc2ccc(S(=O)(=O)N3CCCCC3C)cc2)n1 (stereo not drawn)	-6.7%	45
CC(C)c1cnc2c(c1SCC(=O)NCc1ccccc1)c(=O)n(C)c(=O)n2C	-2.9%	-22
Cc1ccc(Nc2nc3ccccc3c3nncn23)cc1C	?	-14
COc1cc(OC)c(NC(=O)C2CCN(S(=O)(=O)c3ccc4c(c3)oc(=O)n4C)CC2)cc1Cl	-2.1%	-12
Cc1ccc(NC(=O)c2ccc(CN3CC(=O)N4CCCCC4C3=O)cc2)c(Cl)c1 (stereo not drawn)	-0.3%	-14
O=C(Nc1ccccc1C(F)(F)F)C1CCN(c2nnc(-n3cccc3)s2)CC1	0.6%	-9
CC1=C(c2ccc(F)cc2)S(=O)(=O)NC1=NCc1ccccc1Cl	-1.6%	-2
O=S1(=O)C=C[C@@H](COCc2ccccc2)N1Cc1ccc(Br)cc1	-1.8%	2
O=C(Nc1ccc(Cl)c(C(F)(F)F)c1)C(Cc1ccccc1)NS(=O)(=O)c1cccc2nsnc12 (stereo not drawn)	7.4%	-8
COc1ccccc1CNC(=O)CCC(=O)N1Cc2ccccc2Oc2ncccc21	1.2%	9
CCc1nn(CC(=O)N2CCN(c3cccc(C(F)(F)F)c3)CC2)c(=O)c2cc3occc3n12	0.5%	3
Cc1ccc(-n2nc3ccc(NC(=O)COc4ccccc4)cc3n2)cc1Cl	?	-4
COc1cc(OC)c(OC)cc1CN1CCc2nc(N3CCN(c4ccccc4F)CC3)ncc2C1	-2.9%	-6
Cc1cccc(CN2C(=O)N(c3ccc(C(C)C)cc3)S(=O)(=O)c3ccccc32)c1	0.5%	-10
CNC(=O)CCCN1C(=O)CCn2nc(-c3cn(C)c4ccccc34)cc21	-17%	0
Cc1ccc(C(c2ccccc2)c2c(C)[nH]c3ccccc23)s1 (stereo not drawn)	0.4%	-28
CC(=O)c1ccc(NC(=O)CSc2nnc(NC(=O)Nc3ccccc3)s2)cc1	-0.8%	10
CCC(=O)Nc1nnc(S(=O)(=O)N(C)Cc2ccc(Cl)cc2)s1	-0.2%	16
CCc1ccc([C@@H]2CC(=O)[C@@H]3CN(S(=O)(=O)c4ccccc4)[C@H](c4ccc(OC)cc4)C[C@@H]3N2S(=O)(=O)c2ccc(C)cc2)cc1	1.3%	34
Cc1ccc(NC(=O)CSc2ncc(S(=O)(=O)c3ccc(C(C)C)cc3)c(=O)[nH]2)cc1C	-4.5%	-3
COc1ccc2oc(-c3ccc(C)c(NC(=O)c4ccc(N5CCCCC5)c([N+](=O)[O-])c4)c3)nc2c1	1.0%	-8
COc1cccc2c1Oc1ncccc1N(C(=O)CCC(=O)NCc1ccc(OC(C)C)cc1)C2	-4.1%	5
CCOc1ccc(OCCOCCn2c(-c3ccc(Cl)cc3)nc3ccccc3c2=O)cc1	-4.9%	-5
CN(C(=O)c1oc(=O)c2ccccc2c1-c1ccccc1)c1cccc(Cl)c1	-7.8%	3
O=C(c1noc2c1CCCCC2)N1CCN(c2cccc(Cl)c2)CC1	-0.9%	30
CCCCN(CC)CCNc1ncnc2onc(-c3ccc(Cl)cc3)c12	-0.3%	38
O=C(OCC1CCCO1)c1ccc2c(c1)N(Cc1ccccc1F)C(=O)c1ccccc1S2(=O)=O (stereo not drawn)	-3.3%	3
Cc1c(C)n(C)c2ccc(C(=O)NCCc3ccc(Cl)cc3)cc12	?	39
CCc1ccc(C2=C(C)C(N3CCC(C(=O)Nc4ccc(F)cc4)CC3)=NS2(=O)=O)cc1	2.1%	25
COc1ccc(OC)c(Nc2ncc3c(n2)CCN(Cc2cc(OC)c(OC)c(OC)c2)C3)c1	-7.4%	15
CCc1nn(CC(=O)NCCc2ccc(SC)cc2)c(=O)c2cc3sccc3n12	-13%	1
Cc1nn(-c2ccccc2)c2sc(C(=O)Nc3cccc(O)c3)cc12	-6.5%	-3
Cc1ccc(CNc2nc3c(S(=O)(=O)c4ccc(C)c(C)c4)nnn3c3ccc(Cl)cc23)cc1	?	3
Cc1ccccc1-c1nnc(SCC(=O)N2CCCc3ccccc32)o1	-0.8%	-4
CCN(C(=O)Cn1c(=O)n(CC2CCC(C(=O)NC)CC2)c(=O)c2sccc21)c1ccccc1 (stereo not drawn)	-0.1%	-6
CCCCSc1nc(-c2ccc(OC)cc2)ccc1C#N	4.0%	-14

Entries listed so far that have a cyano group:
SMILES	ClpP mod	TRPML1 blocker
CCCS(=O)(=O)NC(=O)C1(C)CCCN(C(=O)c2ccc(C#N)cc2)C1 (stereo not drawn)	1.2%	40
CN(C)c1ccc(/C=C(\C#N)c2nc(-c3ccc(Cl)c(Cl)c3)cs2)cc1	-0.8%	22
CCCCSc1nc(-c2ccc(OC)cc2)ccc1C#N	4.0%	-14

The list is partial (hit frequency here may not be typical).
